# Screening data as filed in PubChem.
# GIV-Gai inh – inhibitors of GIV peptide binding to Galpha-i3, primary screen, biochemical, fluorescence polarization, FITC-GIV GBA peptide, rat Galphai3; Guanine nucleotide-binding protein G(i) subunit alpha-3 (Rattus norvegicus), P08753; 0.42% of 210,000 active; percent of control (FP), % (concentration not given with the values); 90 min; stronger effect = lower value; scaled: aluminum fluoride 0%, vehicle 100%;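 active means replicate mean at 85% of control or lower, very high polarization wells dropped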;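 further: wells of about 15 µL received 100 nL stock; the first replicate is given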
# Target sequence (P08753 whole entry, looked up): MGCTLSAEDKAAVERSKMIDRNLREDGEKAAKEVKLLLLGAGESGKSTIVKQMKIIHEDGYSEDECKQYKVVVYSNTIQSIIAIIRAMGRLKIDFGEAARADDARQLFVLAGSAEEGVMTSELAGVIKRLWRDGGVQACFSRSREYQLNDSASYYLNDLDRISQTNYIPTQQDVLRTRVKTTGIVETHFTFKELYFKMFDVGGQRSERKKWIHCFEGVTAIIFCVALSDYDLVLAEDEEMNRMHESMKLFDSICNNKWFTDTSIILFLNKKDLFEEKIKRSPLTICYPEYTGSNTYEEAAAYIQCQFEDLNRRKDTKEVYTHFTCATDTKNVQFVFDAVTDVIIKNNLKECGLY
# Active calls of the source: *. These rows are one share of the data; the hit share may differ from the screen's.
cpd | SMILES | GIV-Gai inh
1 | Cc1cccc(-c2noc(-c3cccnc3N3CCC(C(=O)NCc4ccccc4)CC3)n2)c1 | 101
2 | O=C(c1cccc(Cl)c1)N1CCN(C(=O)c2cc3ccccc3[nH]2)CC1 | 101
3 | CC(C)NC(=O)N1CCOc2ccc(COCc3ccccc3Cl)cc2C1 | 98
4 | COC(=O)CSc1nnc(-c2ccncc2)n1Cc1ccccc1 | 109
5 | CNC(=O)N1c2ccccc2NC2=C(C(=O)CC(C)(C)C2)C1c1ccccc1 (stereo not given) | 100
6 | c1cc(-c2nc3c(c(N4CCSCC4)n2)CCC3)ccn1 | 101
7 | CCCCC(=O)NC(c1ccc2c(c1)OCO2)c1cc(Cl)c2cccnc2c1O (stereo not given) | 103
8 | CCn1c(SCc2cccc(C)c2)nc(=O)c2c(C(=O)OC)cc(C)nc21 | 104
9 | CCN(CC)c1ccc2cc(C(=O)NC(C)=O)c(=Nc3ccc(F)c(Cl)c3)oc2c1 | 109
10 | CN1C(=O)c2ccccc2Sc2cc(-c3noc(CNC(=O)c4ccccc4)n3)ccc21 | 97
11 | Cn1nnc2cc(-c3noc(CN4C(=O)COc5ccccc54)n3)ccc21 | 99
12 | CCOC(=O)c1sc2nc(-c3cc(OC)cc(OC)c3)c(NCc3ccc(OC)cc3)n2c1C | 101
13 | O=C(c1cccc(F)c1)N1CCC(c2ccncc2)CC1 | 102
14 | O=C(Nc1ccc(F)cc1)N1CCCN(c2nc3cc(F)ccc3n3cccc23)CC1 | 99
15 | CCc1nc(-c2csc(S(=O)(=O)N3CCC(C(=O)NCc4cccnc4)CC3)c2)no1 | 103
16 | CC(=O)NC1(c2nnnn2-c2cccc(Cl)c2)CCCCC1 | 116
17 | O=C(NCc1nnnn1-c1ccccc1)C1CC(=O)N(c2ccc(F)cc2)C1 (stereo not given) | 98
18 | CCCCNC(=O)c1sc2ncnc(N3CCc4ccccc4C3)c2c1C | 97
19 | CCN(CC)c1ccc2cc(-c3nc(-c4ccc(Br)cc4)cs3)c(=Nc3cccc(Br)c3)oc2c1 | 167
20 | CCCCn1c(CNC(=O)c2ccco2)nnc1SC(C)C(=O)Nc1sc2c(c1C(=O)OCC)CCCCC2 (stereo not given) | 103
21 | CCOC(=O)C1=CS/C(=C2/C(=S)C(C)(C)Nc3c(OCC)cccc32)S1 | 109
22 | O=c1ccc(-c2ccc3c(c2)OCO3)nn1CCc1nc(-c2ccccc2)no1 | 101
23 | Cc1nc2nc(Cc3cccc(F)c3)[nH]n2c(=O)c1C | 99
24 | CC(C)c1noc(COC2CCCN(S(=O)(=O)c3cnc[nH]3)C2)n1 (stereo not given) | 99
25 | Fc1ccccc1Nc1nc(NCc2ccco2)c2ccccc2n1 | 101

# (further entries)
cpd | SMILES | GIV-Gai inh
26 | Fc1ccc2nc(CN3CCSCC3)cn2c1 | 101
27 | N#CC12c3ccccc3C(c3ccccc31)C1C(=O)N(Cc3ccccc3)C(=O)C12 (stereo not given) | 106
28 | CCC(=O)Nc1ccc(N2CCCC2)c(C(=O)O)c1 | 105
29 | COc1ccc(C2=Nc3ccccc3N=C(c3cc(OC)ccc3O)C2)cc1 | 117
30 | CCOC(=O)C1C(c2cccc(Oc3ccccc3)c2)NC(=S)NC1(O)C(F)(F)F (stereo not given) | 102
31 | CCOC(=O)C1=CN(Cc2ccc(OC)c(OC)c2)C=C(C(=O)OCC)C1c1ccc(Cl)c([N+](=O)[O-])c1 | 95
32 | CC(C)CNC(=O)CCn1c(=O)c2ccccc2n2c(SCC(N)=O)nnc12 | 99
33 | O=S(=O)(NCc1ccccc1)c1ccc2[nH]c3nc4nc(-c5ccc(Br)cc5)cn4nc3c2c1 | 207
34 | O=C(N/N=C/c1cccc(F)c1)C1C(c2ccccc2)C(C(=O)N2CCOCC2)C1c1ccccc1 (stereo not given) | 107
35 | NC(=O)c1cn2c3c(cccc3c1=O)CC2 | 105
36 | Cc1ccc(NC(=O)C2CCN(S(=O)(=O)c3cc(-c4noc(C5CC5)n4)ccc3C)CC2)nc1 | 108
37 | Cc1noc(C)c1C1CCCN1C(=O)Nc1ccc(Cl)cc1 (stereo not given) | 106
38 | CCc1csc(-c2ccc(S(=O)(=O)NC(CC)c3cccs3)s2)n1 (stereo not given) | 96
39 | CCOC(=O)c1[nH]c(C)c(CCC(=O)N2CCCC(C(=O)NCCCN3CCCC3)C2)c1C (stereo not given) | 108
40 | CCOC(=O)Cn1c2ccccc2n2nc(C)c(=O)nc12 | 115
41 | COc1ccc(-c2csc(=Nc3ccc(F)cc3)n2CCc2ccc(OC)c(OC)c2)cc1Br | 104
42 | COc1ccc([N+](=O)[O-])cc1N(CC(O)CN(CC(C)C)CC(C)C)S(=O)(=O)c1ccc(C)cc1 (stereo not given) | 112
43 | Cc1c(Cl)cccc1NC(=O)C1CC1(c1ccccc1)c1ccccc1 (stereo not given) | 112
44 | COc1cccc(S(=O)(=O)Nc2ccc(-c3nnc(-c4ccccc4)o3)cc2)c1 | 103
45 | COC(=O)c1c(-c2ccccc2)noc1NC1CCS(=O)(=O)C1 (stereo not given) | 103
46 | CCCc1cc(C2CCCN2Cc2cc(Br)ccc2F)no1 (stereo not given) | 106
47 | Cc1ccc(-c2noc(C3CCCN3S(=O)(=O)c3ccc(C)c(C)c3)n2)cc1 (stereo not given) | 96
48 | O=C(CSc1n[nH]c(-c2ccco2)n1)c1ccc(O)c(O)c1 | 103
49 | CCn1c(SCC(=O)Nc2ccccc2O)nnc1-c1cc2ccccc2o1 | 98
50 | O=C(CNC(=O)c1cccc(Cl)c1)N/N=C/c1ccc([N+](=O)[O-])s1 | 113

# By substructure: the compounds so far containing fluorine (eleven)
cpd | SMILES | GIV-Gai inh
9 | CCN(CC)c1ccc2cc(C(=O)NC(C)=O)c(=Nc3ccc(F)c(Cl)c3)oc2c1 | 109
13 | O=C(c1cccc(F)c1)N1CCC(c2ccncc2)CC1 | 102
14 | O=C(Nc1ccc(F)cc1)N1CCCN(c2nc3cc(F)ccc3n3cccc23)CC1 | 99
17 | O=C(NCc1nnnn1-c1ccccc1)C1CC(=O)N(c2ccc(F)cc2)C1 (stereo not given) | 98
23 | Cc1nc2nc(Cc3cccc(F)c3)[nH]n2c(=O)c1C | 99
25 | Fc1ccccc1Nc1nc(NCc2ccco2)c2ccccc2n1 | 101
26 | Fc1ccc2nc(CN3CCSCC3)cn2c1 | 101
30 | CCOC(=O)C1C(c2cccc(Oc3ccccc3)c2)NC(=S)NC1(O)C(F)(F)F (stereo not given) | 102
34 | O=C(N/N=C/c1cccc(F)c1)C1C(c2ccccc2)C(C(=O)N2CCOCC2)C1c1ccccc1 (stereo not given) | 107
41 | COc1ccc(-c2csc(=Nc3ccc(F)cc3)n2CCc2ccc(OC)c(OC)c2)cc1Br | 104
46 | CCCc1cc(C2CCCN2Cc2cc(Br)ccc2F)no1 (stereo not given) | 106

# (more compounds)
cpd | SMILES | GIV-Gai inh
51 | CC(C)n1c(=O)oc2cc(S(=O)(=O)N3CCN(C(=O)c4cc5ccccc5[nH]4)CC3)ccc21 | 102
52 | O=S(=O)(c1ccc2c(c1)OCCO2)N1CCn2cccc2C1c1ccccc1 (stereo not given) | 104
53 | COc1ccc(CN2CCCC2c2c(C)noc2C)cc1Br (stereo not given) | 107
54 | CCc1nnc(NC(=O)CSc2nc(C(F)(F)F)cc(C)c2C#N)s1 | 115
55 | CC1CCN(S(=O)(=O)c2cccn(Cc3cccc(F)c3)c2=O)CC1 | 104
56 | CCOC(=O)c1sc2ncnc(Nc3ccc(OC)cc3OC)c2c1C | 105
57 | CC1CC(C)CN(S(=O)(=O)c2cccc3nonc23)C1 (stereo not given) | 100
58 | N#CC1=CN(c2cc(F)ccc2F)c2cc(Cl)ccc2S1(=O)=O | 109
59 | Cc1ccc(-c2noc(Cn3cnc4c(cnn4-c4ccc(Br)cc4)c3=O)n2)cc1C | 103
60 | CCOC(=O)N1CCN(Cc2nc(-c3ccc(N4CCC(C)CC4)nc3)no2)CC1 | 101
61 | COc1cc(C2C3=C(CC(C)(C)CC3=O)OC3=C2C(=O)CC(C)(C)C3)ccc1OC(C)=O | 113
62 | COc1cc(C2Nc3c(C)cc(C)cc3[C@H]3OCC[C@@H]23)cc(Br)c1OC (stereo not given in full) | 101
63 | Cc1ccc(-c2nnc(-c3nc(NC(C)c4ccccc4)c4ccccc4n3)o2)cc1 (stereo not given) | 100
64 | Cc1ccccc1-n1nc2c(c1NC(=O)c1ccc(S(=O)(=O)N(C)C)cc1)CS(=O)(=O)C2 | 107
65 | CCc1ccc(NC(=O)c2ccc(-n3nc(N4CCCC4)ccc3=O)cc2)cc1 | 106
66 | COc1ccc(NC(=O)CSc2nc3n[nH]c(C)c3c(=N)n2-c2ccc(Cl)c(C)c2)cc1OC | 108
67 | COc1cc(OC)cc(-c2nc3c4ccccc4c4ccccc4c3[nH]2)c1 | 109
68 | COc1ccc(Br)cc1C1C(N2C(=O)c3cccc([N+](=O)[O-])c3C2=O)C(=O)N1c1ccc(Cl)cc1 (stereo not given) | 104
69 | COc1ccccc1NC(=O)C1=C(C)NC(SCC(N)=O)=C(C#N)C1c1ccccc1 (stereo not given) | 109
70 | CC(C)Oc1ccccc1-c1nn2c(=O)c(NC(=O)c3ccccc3)cnc2o1 | 108
71 | Cc1nc(-c2cc(S(=O)(=O)Nc3cccc(Cl)c3F)c(C)s2)cs1 | 106
72 | COc1ccc(C(=O)Nc2ccccc2-c2ccc3ccccc3n2)cc1 | 100
73 | COc1ccc(OC)c(NC(=O)CSc2nc3ccc(N4CCOCC4)cc3c(=O)n2Cc2ccccc2)c1 | 113
74 | CCCCOC(=O)c1ccc(NC(=O)c2c(O)c3cccc4c3n(c2=O)CCC4)cc1 | 113
75 | COc1cc(CN2CCCC2c2c(C)noc2C)cc(OC)c1 (stereo not given) | 96

# Following part:
cpd | SMILES | GIV-Gai inh
76 | CCOC(=O)c1ccc(NC(=O)CSc2nc(C)nc3sc4c(c23)CCC4)cc1 | 97
77 | COCCOC(=O)C1=C(N)OC2=C(C(=O)CCC2)C1c1ccc(Br)cc1 (stereo not given) | 107
78 | CC(C)(C)C(=O)CSc1nc2c(c(-c3cccs3)c1C#N)CCC2 | 105
79 | O=C(NC1CC1)c1n[nH]c2c1CCCCCC2 | 112
80 | COc1cc([C@@H]2[C@@H](C(=O)c3ccccc3)N3c4ccc(Cl)cc4C=C[C@@H]3C2(C#N)C#N)cc(OC)c1OC | 110
81 | COc1ccc(C(=O)[C@@H]2[C@@H](c3ccc(OC)cc3)C(C#N)(C#N)[C@H]3C=Cc4ccccc4N23)cc1 | 117
82 | COc1ccc(CC(=O)NCc2ccc3c(c2)N(C(=O)c2ccc(Cl)cc2)CC3)cc1 | 107
83 | COc1ccc(-c2c(C#N)c(N)nc3sc(C(=O)c4ccc(C)cc4)c(N)c23)cc1OC | 97
84 | O=C(C1CCCN(C(=O)C2CCC2)C1)N1CCOCC1 (stereo not given) | 107
85 | Cc1ccc(Nc2nc(NCC3CCCO3)nc3c2cnn3-c2ccccc2)cc1 (stereo not given) | 106
86 | Cc1c(C(=O)Nc2c(F)cccc2F)sc2ncnc(N3CCN(c4ccccn4)CC3)c12 | 97
87 | Cc1ccc(-c2[nH]nc3c2C(C(=O)c2ccc(C)c(C)c2)CC(=O)N3)cc1 (stereo not given) | 97
88 | O=c1n(Cc2cccc(F)c2)nc2c(S(=O)(=O)N3CCCCC3)cccn12 | 112
89 | CC1=NS(=O)(=O)c2cccnc2N1c1cccc(Br)c1 | 106
90 | CCN(CC)C(=O)C12CC3CCC1(C)C3(C)CO2 (stereo not given) | 105
91 | C=CCN=Cc1c(O)n(-c2ccccc2)c(=S)n(-c2ccccc2)c1=O | 119
92 | Cc1ccc(S(=O)(=O)c2cnc(N3CCC4(CC3)OCCO4)nc2N)cc1 | 102
93 | O=C(CCc1c[nH]c2ccccc12)Nn1c(SCc2cccc([N+](=O)[O-])c2)nc2ccccc2c1=O | 114
94 | Cc1ccc(CNC(=O)c2ccc(N3CC4CC(C3)c3cccc(=O)n3C4)c(NS(=O)(=O)c3ccc(Cl)cc3)c2)cc1 (stereo not given) | 103
95 | Cc1nc(SCC2=C(C(=O)OC(C)C)C(c3cccc(I)c3)C(C#N)=C(N)O2)c(C#N)c(C)c1C (stereo not given) | 123
96 | CC(C)N1CCN(Cc2nc(-c3ccc(N4CCCC4)nc3)no2)CC1 | 98
97 | CC12c3ccccc3C(c3ccccc31)C1C(=O)N(c3ccccc3[N+](=O)[O-])C(=O)C12 (stereo not given) | 122
98 | NS(=O)(=O)c1cc(S(N)(=O)=O)c2cccc3c2c1NC3=O | 102
99 | O=[N+]([O-])c1ccc(Nc2nc(NCc3ccco3)nc(NCc3ccco3)n2)cc1 | 105
100 | Cc1ccccc1-c1cc2n(C)c(C)c(CCC(=O)NC3CCCC3)c(=O)n2n1 | 106

# More results:
cpd | SMILES | GIV-Gai inh
101 | COc1cc(/C=C2\N=C(c3ccccc3)N(c3ccc(Cl)c(Cl)c3)C2=O)cc(OC)c1OC | 108
102 | Cc1ccc(-c2cn(/N=C/c3ccc(Cl)cc3Cl)c(NC(=O)Nc3ccccc3Cl)n2)s1 | 104
103 | Cc1nn(-c2ccccc2)c2sc(C(=O)Oc3ccc4cnccc4c3)cc12 | 108
104 | CCOC(=O)c1sc(=S)n(-c2ccc([N+](=O)[O-])cc2)c1N | 102
105 | CCOC(=O)c1[nH]c(C)c(CN(CC2CCCO2)C(=O)c2cccnc2)c1C (stereo not given) | 100
106 | O=C(Nc1ccc(Cl)cc1)c1nc(-n2cnnc2)ccc1Cl | 108
107 | Cn1nc(-c2nnc(-c3ccccc3F)o2)c2c1CCN(S(=O)(=O)c1cccc3nsnc13)C2 | 105
108 | COc1ccc(C2(O)CN(c3cccc(C)c3C)C3=[N+]2CCCS3)c(F)c1 (stereo not given) | 116
109 | COc1ccc(CCNC(=O)CCn2c(SCC(=O)NC3CCCC3)nc3ccccc3c2=O)cc1OC | 112
110 | COc1cccc(N/C(SCc2ccccc2C)=C(/C#N)C(=O)NCCc2ccc(OC)c(OC)c2)c1 | 104
111 | Cc1ccc(C(=O)Sc2sc(=S)sc2SC(=O)c2ccc(C)cc2)cc1 | 105
